# Source: PubChem
# Mtb H37Rv – Mycobacterium tuberculosis H37Rv growth inhibition, cell based, confirmatory dose response (AID 1949). M. tuberculosis H37Rv growth inhibition. most inactive calls were filed without a number and no value below 0 was filed. inhibition, % at 10 µg/mL, or IC50 in µg/mL where a hit was titrated. 100,000 compounds, 1.6% hits;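 active = confirmed in a dose series; inconclusive = about 50% or more but not retested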;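 note: bacteria grown 7 days with compound before Alamar blue readout; 0% = untreated bacteria and 100% = reference antibiotic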
# Numbers without * were called inactive; i = inactive; ? = inconclusive.
nr	SMILES	Mtb H37Rv
1	CC12CCC(C(=O)Oc3cccc4cccnc34)(CC1=O)C2(C)C (stereo not given)	1.6µg/mL*
2	O=C(Cn1cc(C(=O)C2CC2)c2ccccc21)NCC1CCCO1 (stereo not given)	i
3	Cc1ccc(S(=O)(=O)N(CC(=O)Nc2ccccc2F)Cc2ccc(Br)cc2)cc1	3%
4	Cc1cccc(-n2c(N)cc(=O)nc2SCC(=O)Nc2cccc3ccccc23)c1	i
5	Cc1ccc(N(CC(=O)N2CCN(Cc3ccccc3)CC2)S(C)(=O)=O)cc1	i
6	C#CCOc1c(Cl)cc(C2C3=C(CCCC3=O)NC3=C2C(=O)CCC3)cc1OCC	4%
7	COc1ccc(NC(=O)Nc2cc(C)ccc2F)cc1	i
8	COc1cc2nc(SCC(=O)Nc3ccc(C)cc3)n(-c3ccccc3)c(=O)c2cc1OC	5%
9	CSc1ccccc1NC(=O)CN1c2cccc3cccc(c23)S1(=O)=O	i
10	CCc1ccc(OCCOCC(O)CNC2CCCC2)cc1 (stereo not given)	i
11	O=C(Nc1sc2c(c1C(=O)NCC1CCCO1)CCC2)c1cccs1 (stereo not given)	i
12	O=S(=O)(NCCSCc1ccco1)c1cc(Cl)ccc1Cl	i
13	Cc1ccc(NC(=O)C(Cc2ccccc2)N2C(=O)c3ccccc3C2=O)cc1C (stereo not given)	i
14	Cc1cc(C)nc(/N=C(\N)N2CCc3ccccc32)n1	7%
15	C=CCOc1ccc(Oc2cc(C)nc(SC)n2)nn1	i
16	Cc1cccc(C(=O)O)c1NC(=O)c1ccc2c(c1)C(=O)N(CC(C)C)C2=O	i
17	CCOC(=O)c1c(-c2ccccc2)csc1NC(=O)c1cc(OC)c(OC)c(OC)c1	6%
18	COCCNC(=S)N1CCOCC1	i
19	CCOCCCNC(=S)Nc1ccc(F)cc1	i
20	COc1cc2c(cc1NC(=O)c1cccc(F)c1)CCCC2	1%
21	COc1ccc(/C=N/N=C2/NC(=O)C(Cc3ccc(F)cc3)S2)cc1 (stereo not given)	i
22	CCOc1cc(C#N)cc(Cl)c1OC(C)=O	i
23	Cc1ccnc(NC(=S)Nc2cccc([N+](=O)[O-])c2)c1	i
24	COCCn1c(SCC(=O)Nc2ccc(Br)cc2)nnc1-c1ccccc1	i
25	CCOC(=O)c1ccc(NC(=O)CCN2C(=O)c3cccc4cccc(c34)C2=O)cc1	i
26	Cc1cccc(C(=O)Nc2nc3ccc(S(C)(=O)=O)cc3s2)c1[N+](=O)[O-]	i
27	N#Cc1cc2c(nc1SCC(=O)Nc1cccc(F)c1)CCCCC2	1%
28	CCS(=O)(=O)c1ccc2nc(SCc3ccc([N+](=O)[O-])cc3)oc2c1	1%
29	O=C(Nc1c(Cl)cccc1Cl)c1ccccc1-c1ccccc1	39%
30	Oc1ccc(N2CCN(C(=S)Nc3ccc(Nc4ccccc4)cc3)CC2)cc1	i
31	Cc1cc(C)cc(CSCC(=O)N2CCN(c3cc(Cl)ccc3C)CC2)c1	23%
32	CCOC(=O)Cc1csc(NC(=O)c2c(-c3c(F)cccc3Cl)noc2C)n1	i

# Filtered by structure, the compounds so far containing four or more nitrogen atoms (6)
nr	SMILES	Mtb H37Rv
4	Cc1cccc(-n2c(N)cc(=O)nc2SCC(=O)Nc2cccc3ccccc23)c1	i
14	Cc1cc(C)nc(/N=C(\N)N2CCc3ccccc32)n1	7%
15	C=CCOc1ccc(Oc2cc(C)nc(SC)n2)nn1	i
23	Cc1ccnc(NC(=S)Nc2cccc([N+](=O)[O-])c2)c1	i
24	COCCn1c(SCC(=O)Nc2ccc(Br)cc2)nnc1-c1ccccc1	i
30	Oc1ccc(N2CCN(C(=S)Nc3ccc(Nc4ccccc4)cc3)CC2)cc1	i

# Additional results:
nr	SMILES	Mtb H37Rv
33	O=C1C2CC=CCC2C(=O)N1c1n[nH]c(-c2ccccc2)n1 (stereo not given)	i
34	CC1CCN(C(=S)c2ccc(OC(=O)c3ccccc3F)cc2)CC1	15%
35	CS(=O)(=O)N1N=C(c2cccs2)CC1c1ccco1 (stereo not given)	i
36	COc1ccc(CCC(=O)Nc2sc3c(c2C(N)=O)CCCCC3)cc1	i
37	COc1ccc(-n2nnnc2S(=O)(=O)Cc2ccc(C(=O)O)cc2)cc1	3%
38	O=[N+]([O-])c1ccc(COc2c(F)c(F)cc(F)c2F)cc1	i
39	CCC(=O)Nc1cccc(NC(=S)NC(=O)c2ccccc2I)c1	i
40	COc1cc(NC(=O)C2CCCO2)c(OC)cc1Cl (stereo not given)	i

# Fetched by structure from the entries so far:
nr	SMILES	Mtb H37Rv
38	O=[N+]([O-])c1ccc(COc2c(F)c(F)cc(F)c2F)cc1	i
39	CCC(=O)Nc1cccc(NC(=S)NC(=O)c2ccccc2I)c1	i
35	CS(=O)(=O)N1N=C(c2cccs2)CC1c1ccco1 (stereo not given)	i

# Further compounds
nr	SMILES	Mtb H37Rv
41	COc1ccc(S(=O)(=O)Nc2ccc(C(N)=O)cc2)cc1C	i
42	Cc1c(C2(O)C(=O)Nc3ccc(F)cc32)c(=O)n(-c2ccccc2)n1C (stereo not given)	0%
43	O=C(CN1CCCCC1)Nc1ccccc1	i
44	CC1CCCCN1C(=O)c1ccc(Br)o1 (stereo not given)	i
45	O=C(NC1=NCCS1)c1cccc(F)c1	1%
46	COc1ccc(S(=O)(=O)Nc2cc(SCc3ccccc3)c(O)c3ccccc23)cc1	8%
47	CCN1CCN(c2ncnc3c2cnn3-c2cccc(C)c2)CC1	i
48	COC(=O)c1ccccc1OC(=O)c1ccc2c(c1)C1C=CCC1C(C(=O)O)N2 (stereo not given)	i
49	CCOc1ccccc1NC(=S)Nc1ccccc1F	i
50	C=CCn1c(SCC(=O)Nc2sc3c(c2C#N)CCCC3)nnc1-c1cccc(C)c1	2%
51	CCC(C)NC(=O)c1ccccc1NC(=O)Nc1ccccc1 (stereo not given)	i
52	O=C(O)c1cccc(-n2ncc(Cl)c(Cl)c2=O)c1	i
53	CCc1nnc(SCC(=O)Nc2cccc([N+](=O)[O-])c2)o1	i
54	CC(=O)c1cccc(NC(=O)c2ccccc2Cl)c1	i
55	O=S(=O)(c1ccc(Cl)cc1)N1CCN(CC2CC=CCC2)CC1 (stereo not given)	i
56	CCC(=O)NC(=S)Nc1cccc(Cl)c1N1CCCC1	14%
57	Fc1ccc(-c2nnn(Cc3ccccc3F)n2)cc1	i
58	COC(=O)c1cc(OC)c(OC)cc1NC(=O)c1cc(OC)cc(OC)c1	i
59	Cc1coc(NC(=O)CSc2nc(-c3ccc(Cl)cc3)cc(C(F)(F)F)c2C#N)n1	0%
60	Cn1c(CSCc2ccccc2)nnc1SCC(=O)Nc1ccc(C(=O)O)cc1	i
61	NC(=O)/C=C/c1cccc(C(F)(F)F)c1	i
62	O=C(Nc1nnc(C(F)(F)F)s1)c1cc(Cl)ccc1Cl	10%
63	S=C(NCCC1=CCCCC1)Nc1ccc2c(c1)OCO2	i
64	O=c1oc(/C=C/c2ccc([N+](=O)[O-])cc2)nc2cc(Cl)ccc12	?
65	CCCc1cc(=O)oc2cc(C)cc(OCC=C(C)C)c12	27%
66	O=c1[nH]c2ccc(NCc3ccc(OCc4ccc(Cl)cc4)cc3)cc2[nH]1	i
67	CC(C)c1nnc(N2C(=O)C(O)=C(C(=O)c3cccs3)C2c2cccnc2)s1 (stereo not given)	i
68	O=[N+]([O-])c1ccc(Oc2ccc(Br)cc2)cc1	i
69	COc1cc(N)c(Cc2nccc3cc(OC)c(OC)cc23)cc1OC	i
70	CCOc1ccc(C2c3c(oc4ccccc4c3=O)C(=O)N2c2nc(C)c(C(=O)OC)s2)cc1OC (stereo not given)	1%
71	O=C(Nc1ccccc1)Nc1nc2ccccc2s1	i
72	NC(=O)c1ccccc1NC(=O)/C=C/c1ccc(Cl)cc1	i
73	CC(=O)N(Cc1ccccc1)Cc1cn(-c2ccccc2)nc1-c1ccc([N+](=O)[O-])cc1	i
74	COc1cc(NS(=O)(=O)c2ccc(NC(=S)NC(=O)c3c(-c4ccccc4)noc3C)cc2)ncn1	i
75	CCc1cccc(OCC(=O)Nc2ccc(C)c(C)c2)c1	10%
76	O=C(NCc1ccncc1)c1ccc(-c2ccccc2)cc1	0%
77	COc1cc(NC(=S)NCCc2ccccc2)c(OC)cc1Cl	4%
78	COc1cccc(C(=O)OCc2c(F)cccc2Cl)c1	i
79	COc1ccc(S(=O)(=O)NC2CCC(NS(=O)(=O)c3ccc(OC)cc3)CC2)cc1 (stereo not given)	i
80	O=Cc1ccc(OC(=O)Cc2ccccc2)c(Cl)c1	i
81	C(=C\c1ccccc1)/Cn1c(COc2ccccc2)nc2ccccc21	22%
82	CC(C)=C1C2CCC1C(C(=O)NCCc1cccc(Cl)c1)C2C(=O)O (stereo not given)	i
83	CCOC(=O)c1ccc(NC(=O)COc2ccc3oc(-c4ccc(OC)cc4)cc(=O)c3c2)cc1	i
84	O=c1ccccn1CCOc1ccccc1Cl	i
85	COC(=O)c1c(C)cc(=O)n2c1[nH]c1ccccc12	3.5µg/mL*
86	O=C(NCCCN1CCOCC1)c1cccs1	i
87	COc1ccccc1C(=O)Nc1nnc(COc2ccc(C)cc2)s1	i
88	CC(=O)N1CCN(c2ccc(NC(=O)c3ccc(Br)o3)cc2)CC1	2%

# As entered above:
# Reading for entry 88 under Mtb H37Rv: 2%
# Reading for entry 81 under Mtb H37Rv: 22%
# Reading for entry 85 under Mtb H37Rv: 3.5µg/mL*

# (list continues)
nr	SMILES	Mtb H37Rv
89	COC(=O)COc1ccc(S(=O)(=O)Nc2ccc(NC(C)=O)cc2)cc1	i
90	O=C(Nc1cccc([N+](=O)[O-])c1)c1ccccc1	i
91	COc1cc(C2NC(=S)NC(C)=C2C(=O)Nc2ccccc2C)ccc1OCC(C)C (stereo not given)	i
92	CCOC(=O)c1c2c(n3cc4ccccc4cc13)C(=O)c1ccccc1C2=O	i
93	COCC(C)NC(=O)c1cccc(NC(=O)c2ccccc2)c1 (stereo not given)	i
94	CCCCCOc1ccc(C(=O)Nc2ccc3c(c2)OCCO3)cc1	i
95	COc1ccc(CCNS(=O)(=O)c2ccc(CC(C)C)cc2)cc1OC	2%
96	CC(C)OC(=O)CSc1nnc(-c2cnccn2)n1-c1ccccc1	i
97	CCc1ccc(S(=O)(=O)Nc2cccc(Cl)c2)cc1	21%
98	CN(C)c1ccc(/C=C(/C#N)c2cccc(F)c2)cc1	10%
99	CC1=C(C(=O)Nc2ccccn2)C(c2ccccc2)C2=C(CC(c3ccco3)CC2=O)N1 (stereo not given)	i
100	CCOC(=O)C1=C(C)N=C2SCC(=O)N2C1c1ccc2c(c1)OCO2 (stereo not given)	i
101	CN(C)c1ccc(/C=C(/C#N)c2ccc3c(c2)OCO3)cc1Br	i
102	CCn1c(COc2cc(C)ccc2C(C)C)nnc1SCC(=O)Nc1cccc(OC)c1	4%
103	CCOc1ccc(-n2c(SCC(=O)Nc3ccc(F)cc3)nnc2-c2ccccc2)cc1	0%
104	Nc1ccccc1C(=O)NCCC1=CCCCC1	i
105	CN(C(=O)CSc1nc2ccccc2c(=O)n1Cc1ccccc1)c1ccccc1	i
106	O=C(Nc1ccc(I)cc1C(=O)Nc1ccncc1)c1cccnc1	i
107	O=C(Nc1ccc(Cl)c(C(F)(F)F)c1)c1ccc2c(c1)OCO2	i
108	CCc1ccc(OCCCC(=O)Nc2cc([N+](=O)[O-])ccc2OC)cc1	i
109	CC(=O)Nc1ccc(S(=O)(=O)N2CCN(c3ccc([N+](=O)[O-])c(Sc4nncn4C)c3)CC2)cc1	i
110	O=C(Nc1cc(C(F)(F)F)ccc1N1CCOCC1)c1ccco1	i
111	Cc1cc(OCC(=O)N(C)c2ccccc2)cc(C)c1Br	i
112	O=C(Nc1ccccc1Br)C12CC3CC(CC(C3)C1)C2	i
113	CCCNC(=O)c1ccccc1NS(=O)(=O)c1ccc(C)c([N+](=O)[O-])c1	i
114	O=C(CN1C(=O)CNC1=O)Nc1cccc(C(F)(F)F)c1	i
115	O=C(CCN1CCc2ccccc2CC1)c1ccc2c(c1)OCCO2	8.4µg/mL*
116	O=C(O)CCCC(=O)Nc1ccc(C(=O)N2CCOCC2)cc1	i
117	CCN(CC(=O)NC1CCCC1)S(=O)(=O)c1ccc(C)cc1	i
118	Cc1ccc(N2C(=O)C(Cc3ccccc3)NC2=S)cc1 (stereo not given)	i
119	CCCC(NC(=S)NCC1CCCO1)C12CC3CC(CC(C3)C1)C2 (stereo not given)	i
120	O=S(=O)(Nc1ccccc1)c1ccc(Oc2ccc(Br)cc2)cc1	1%
121	CC1(C)CC(NC(=O)c2cccc3ccccc23)CC(C)(C)N1	1%
122	Cc1cc(-n2nc3ccccc3n2)c2oc(SCC(=O)NC(C)c3ccccc3)nc2c1 (stereo not given)	i
123	C=Cc1ccc(COc2ccc3c(C)c(C)c(=O)oc3c2C)cc1	2%
124	CCc1cc(I)ccc1NC(=O)COc1ccc(OC)cc1	i
125	COc1cc(NC(=O)Cc2ccccc2)ccc1NC(=O)c1ccccc1	1%
126	CC(=O)c1c(C(C)=O)c(C)n(-c2ccc(N)c(C)c2)c1C	i
127	Cc1cc(Cl)ccc1OCCCC(=O)NCC1CCCO1 (stereo not given)	i
128	CCOC(=O)CCc1c(C)c2ccc(OC3CCCCC3=O)cc2oc1=O (stereo not given)	i
129	COC(=O)c1ccc(NC(=O)C2CN(S(=O)(=O)c3ccccc3)CCN2S(=O)(=O)c2ccccc2)cc1 (stereo not given)	i
130	COc1ccc(C)cc1-n1c(-c2ccncc2)n[nH]c1=S	i
131	O=C(CSc1nnc(Cc2ccccc2)n1-c1ccccc1)Nc1ccc(Br)cc1Cl	i
132	CCCCCc1nc(-c2ccccn2)no1	2%
133	Cc1ccc(C(C)C)cc1S(=O)(=O)N1CCN(c2ccccc2)CC1	3%
134	O=C(/C=C/c1cccc(C(F)(F)F)c1)Nc1ncc(Cc2ccc(Cl)cc2)s1	2%
135	CCOC(=O)c1ccc(NC(=O)C(C)N2c3cccc4cccc(c34)S2(=O)=O)cc1 (stereo not given)	i
136	CCOc1ccc(S(=O)(=O)Nc2ccccc2SC)cc1	4%

# Some of the compounds tested (hit frequency here may not be typical).
